D2 agonist = human D2 receptor agonism in beta-arrestin assay. activation, % (test concentration not listed). DiscoveRx PathHunter D2 beta-arrestin, luminescence, 90 min; 100% = 57 uM dopamine signal. hit rate 0.084% among 360,000. AID 624465; in the data active = activation above about 40%; inconclusive = about 15% to 40%; inactive = below about 15%; further: compound concentration not given in the record; the text of the record calls up to 30% inactive
Target sequence (P14416 whole entry, looked up): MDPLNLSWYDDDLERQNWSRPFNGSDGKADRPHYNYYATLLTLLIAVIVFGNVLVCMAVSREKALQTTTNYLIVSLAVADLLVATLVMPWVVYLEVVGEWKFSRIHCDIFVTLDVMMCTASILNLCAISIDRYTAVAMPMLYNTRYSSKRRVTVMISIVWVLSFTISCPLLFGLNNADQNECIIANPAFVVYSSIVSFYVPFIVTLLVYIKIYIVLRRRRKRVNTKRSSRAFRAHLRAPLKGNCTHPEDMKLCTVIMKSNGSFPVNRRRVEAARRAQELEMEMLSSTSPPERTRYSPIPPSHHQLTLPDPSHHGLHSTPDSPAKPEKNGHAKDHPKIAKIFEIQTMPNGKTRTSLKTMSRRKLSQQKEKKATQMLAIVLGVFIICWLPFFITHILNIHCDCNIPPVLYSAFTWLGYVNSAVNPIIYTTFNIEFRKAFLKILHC
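Agonist mode: compounds alone added to overnight-plated D2 PathHunter cells for 90 min at 37 C, with 57 uM final dopamine (EC100) defining full response. Beta-arrestin recruitment detected by chemiluminescent reagent, read after 1 h at ambient temperature.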
TRPML1 ag = human mucolipin-1 channel agonism. TRPML1-expressing cells, Ca2+ dye fluorescence, FDSS; host cell line not named in the record; reference of the full effect not given here. activation, % (test concentration not listed). hit rate 0.12% among 410,000. AID 624414; in the data active = activation above about 50%; inconclusive = about 30% to 50%; inactive = below about 30%; further: 0% is about no effect; the text of the record puts the active cut at 80%
Target sequence (Q9GZU1 whole entry, looked up): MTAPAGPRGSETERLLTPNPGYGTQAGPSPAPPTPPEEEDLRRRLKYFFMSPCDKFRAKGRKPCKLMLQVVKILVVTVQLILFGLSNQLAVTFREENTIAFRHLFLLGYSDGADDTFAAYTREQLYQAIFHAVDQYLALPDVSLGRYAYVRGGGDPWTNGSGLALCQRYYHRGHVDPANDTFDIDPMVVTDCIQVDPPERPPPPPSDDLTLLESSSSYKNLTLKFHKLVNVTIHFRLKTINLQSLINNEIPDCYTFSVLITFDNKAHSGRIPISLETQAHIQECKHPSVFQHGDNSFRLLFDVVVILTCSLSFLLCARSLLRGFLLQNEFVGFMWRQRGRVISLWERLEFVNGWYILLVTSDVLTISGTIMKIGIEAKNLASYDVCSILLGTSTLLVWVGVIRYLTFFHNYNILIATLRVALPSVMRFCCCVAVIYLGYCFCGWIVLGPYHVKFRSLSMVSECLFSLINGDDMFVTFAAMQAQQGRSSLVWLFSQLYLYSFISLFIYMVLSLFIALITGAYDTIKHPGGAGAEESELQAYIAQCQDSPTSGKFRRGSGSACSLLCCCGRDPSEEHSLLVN
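In this qHTS format, compounds were pin-transferred onto Ca8-dye-loaded TRPML1-DL cells induced with Tet overnight, and intracellular Ca2+ fluorescence was recorded kinetically for 110 s after a 10 s baseline. A subsequent 4uM final 54-4 (EC80) addition followed by a second 110 s read served as the antagonist phase.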
TRPML1 inh = human mucolipin-1 channel inhibition. TRPML1-inducible cells, Ca2+ dye fluorescence, FDSS; stronger effect = lower value; inhibition of EC80 agonist-evoked calcium signal. activity change, negative = inhibition, % (concentration not given with the values). hit rate 0.02% among 390,000; in the data active means activity change below about -50%; inconclusive means about -30% to -50%; inactive means above about -30%;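 further: stimulus is agonist 54-4 at its EC80 concentration; on the % scale 0 is the no-effect control and ±100 the full control effect; compound concentration not given in the record; the text of the record puts the active cut at -80%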
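Tet-induced TRPML1-DL cells loaded with Ca8 no-wash calcium dye were read kinetically on FDSS. Compound addition was followed by EC80 agonist 54-4 (4 uM final); inhibition was read over 110 s.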
Six1-Eya2 inh = inhibitors of human Six1/Eya2 interaction. hit rate 0.56% among 360,000. activity change, % (concentration not given with the values). AlphaScreen GST-Six1/His-Eya2 binding, biochemical; stronger effect = lower value; control for the full effect not named in the record; in the data active = activity change below about -65%; inconclusive = about -30% to -65%; inactive = above about -30%; further: on the % scale 0 is the no-effect control and ±100 the full control effect
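AlphaScreen luminescence read after one hour at 37 °C in darkness. Pin-transferred compounds met GST-Six1 and His-Eya2 protein (5X stock 250 nM/500 nM) plus glutathione donor and Ni-chelate acceptor beads (5X, 50 ug/mL).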
D2 potentiator = human D2 receptor positive allosteric modulation; P14416; DiscoveRx D2 beta-arrestin cells, luminescence, 90 min; 100% = 57 uM dopamine signal; potentiation, % (concentration not given with the values); hit rate 0.23% among 360,000; AID 624464; active = potentiation of 50% or more; inconclusive = 30% to 50%; inactive = 30% or less;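 further: compound concentration not given in the record; tested on top of an EC20 dose of dopamine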
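PathHunter D2 cells, attached overnight at 37 deg C, received compound in DMSO plus dopamine at EC20 (50 nM final) for 90 min at 37 deg C. Beta-arrestin recruitment was read as luminescence after 1 h with detection reagent at ambient temperature.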
PINK1 expr mod = PINK1 expression modulation. PINK1 immunofluorescence, high-content cytometry, 24 h. Potency, µM (series often up to 76.6 µM), for inactives: at the highest dose activation (PINK1 increase), most hits filed as activators. hit rate 0.2% among 410,000; active = well fitted activation curve with a large enough effect; inconclusive = small, poorly fitted or top-dose-only effect; inactive = flat fitted curve, though single readings scatter; cell line not stated here;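 further: potency means the concentration at half of the fitted maximal effect; % of control where 0% means no effect; nearly all actives have a fitted effect of over 65% in size; a mitochondrial uncoupler was the plate control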
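Decision-based qHTS: stable cells, 24 h exposure to five compound concentrations, CCCP as control. Fixed cells stained for PINK1 plus nuclear, mitochondrial and cell markers, cytometer read.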
* marks the source's active call; other numbers are inactive results; ? = inconclusive; nt = not tested or not shown; [ ] = remark or other dose.

Second line of a record – D2 potentiator	PINK1 expr mod	Six1-Eya2 inh	TRPML1 inh	D2 agonist	TRPML1 ag
[1] NC(=S)N/N=C/c1ccc(-c2ccc(SC(F)F)cc2)o1
    -9	0.1%	-3	-18	1.0	2.1
[2] COc1ccc(S(=O)(=O)n2nc(-c3cc(OC)c(OC)c(OC)c3)cc2N)cc1OC
    -1	1.3%	-1	-7	-1.7	-0.3
[3] O=C1CCCC(O)=C1Sc1cc(Cl)c(Cl)cc1Cl
    4	6.3%	2	-10	-0.7	3.8
[4] CCCc1[nH]n(-c2ccc([N+](=O)[O-])cc2)c(=O)c1C(C)=NCc1ccncc1
    -7	?	-5	12	1.3	1.2
[5] Cc1cccc(C)c1NC(=O)Cn1cc(C=O)c2ccccc21
    -7	5.0%	4	-1	-4.4	-0.2
[6] COc1ccc2oc(C(=O)OCC(=O)NC3CCCC3)c(C)c2c1
    -14	1.3%	-5	19	-0.9	3.1
[7] CN(Cc1cnn(C)c1)C(=O)C1CCC(=O)N(C2CCCCCC2)C1 (configuration not stated)
    26	-0.4%	3	-16	-1.7	0.2
[8] COc1ccc(C(=S)N2CCOCC2)cc1OC(=O)c1ccccc1
    -6	5.8%	-4	-9	0.9	0.0
[9] COC(=O)NNC(=O)C12CC3CC(CC(C3)C1)C2
    -22	3.8%	18	-5	-2.9	0.2
[10] Cc1cccc(NS(=O)(=O)c2cccc(C(=O)N3CCN(S(=O)(=O)c4ccccc4)CC3)c2)c1
    8	0.9%	-8	-10	0.6	4.2

Second line of a record – D2 potentiator	PINK1 expr mod	Six1-Eya2 inh	TRPML1 inh	D2 agonist	TRPML1 ag
[11] COc1ccccc1N1CCN(CCS(=O)(=O)c2cc(Cl)ccc2Cl)CC1
    -29	4.9%	-6	2	-2.6	-0.8
[12] CC(C)CN(C(=O)COC(=O)C12CC3CC(CC(Cl)(C3)C1)C2)c1c(N)n(Cc2ccccc2)c(=O)[nH]c1=O
    -15	19%	8	-17	-0.1	1.2
[13] CC(=O)c1c(C)nc(-c2ccc(Cl)cc2Cl)n1O
    -41	1.3%	6	-7	-0.9	0.8
[14] Cc1cccc(N(C)c2cc(C)nc3nc(C)nn23)c1
    -2	3.6%	5	6	-7.0	0.8
[15] Cc1ccccc1OCCn1c(=N)n(C(C)C)c2ccccc21
    nt	1.4%	nt	11	nt	0.1
[16] COc1ccc(C(=O)Nc2cc3c(cc2C#N)OCO3)cc1S(=O)(=O)NCc1ccco1
    -10	-1.7%	-5	8	-4.4	0.0
[17] Cn1ccc(C(=O)N/N=C/c2cccnc2)n1
    1	1.0%	10	-1	1.0	0.0
[18] CC(=O)Nc1c(-c2ccccc2)nc2ccc(Cl)cn12
    5	1.0%	2	10	-1.4	0.5
[19] CCCCc1nc(NCCNC(=O)c2ccco2)c(C#N)c2c1CSC(C)(C)C2
    2	5.9%	?	2	-0.7	-0.5
[20] CSc1ccc(S(=O)(=O)N2CCC(C(=O)Nc3ccc(NC(C)=O)cc3)CC2)cc1
    -2	0.1%	2	24	-1.7	1.0

Second line of a record – D2 potentiator	PINK1 expr mod	Six1-Eya2 inh	TRPML1 inh	D2 agonist	TRPML1 ag
[21] COc1cccc(CN2CCN(S(=O)(=O)c3ccc(Br)cc3)CC2)c1
    -21	nt	-2	0	2.4	0.6
[22] COc1ccc(N2C(=O)CSC23C(=O)N(CC(=O)NC2CCCC2)c2ccccc23)cc1 (configuration not stated)
    -6	-2.1%	0	47	-2.4	-1.3
[23] N#CCC(=O)N/N=C/c1ccc(N2N=C(c3ccccc3)CC2c2ccccc2)cc1 (configuration not stated)
    0	27%	15	-1	-3.3	0.6
[24] COc1ccc(N(CC(=O)Nc2cc(C)ccc2C)S(=O)(=O)c2ccccc2[N+](=O)[O-])c(OC)c1
    -3	3.0%	-7	13	0.5	0.9
[25] O=c1c2ccccc2nc2c3ccccc3c(NCc3cccnc3)nn12
    -7	-0.2%	-4	16	-18	0.7
[26] CC(=O)Nc1ccc(S(=O)(=O)N/N=C/c2cccnc2)cc1
    -15	-1.2%	11	6	-5.5	-0.2
[27] O=C(COc1ccc(S(=O)(=O)Nc2ccccc2)cc1)N1CCOCC1
    -8	-0.4%	4	8	-0.2	0.4
[28] CCOc1cc(C2NC(=O)CCC2[N+](=O)[O-])cc(Br)c1OC (configuration not stated)
    -3	-0.9%	1	-12	3.7	0.7
[29] CC(C)NC(=O)c1noc2cc([N+](=O)[O-])ccc12
    26	-3.9%	-1	-4	9.7	-0.4
[30] O=C(CSc1n[nH]c(=O)n1-c1cccnc1)Nc1ccccc1Cl
    -5	1.5%	5	-16	-1.5	0.4

Random excerpt: 3 compounds from above.
Second line of a record – D2 potentiator	PINK1 expr mod	Six1-Eya2 inh	TRPML1 inh	D2 agonist	TRPML1 ag
[24] COc1ccc(N(CC(=O)Nc2cc(C)ccc2C)S(=O)(=O)c2ccccc2[N+](=O)[O-])c(OC)c1
    -3	3.0%	-7	13	0.5	0.9
[7] CN(Cc1cnn(C)c1)C(=O)C1CCC(=O)N(C2CCCCCC2)C1 (configuration not stated)
    26	-0.4%	3	-16	-1.7	0.2
[21] COc1cccc(CN2CCN(S(=O)(=O)c3ccc(Br)cc3)CC2)c1
    -21	nt	-2	0	2.4	0.6

Part of the list above with just D2 agonist and D2 potentiator:
#	Structure	D2 agonist	D2 potentiator
27	O=C(COc1ccc(S(=O)(=O)Nc2ccccc2)cc1)N1CCOCC1	-0.2	-8
28	CCOc1cc(C2NC(=O)CCC2[N+](=O)[O-])cc(Br)c1OC (configuration not stated)	3.7	-3

Additional entries follow:
Second line of a record – D2 potentiator	PINK1 expr mod	Six1-Eya2 inh	TRPML1 inh	D2 agonist	TRPML1 ag
[31] COc1ccc(CCNC(=O)CSC2=Nc3ccccc3C3=NC(C(C)C)C(=O)N23)cc1OC (configuration not stated)
    -9	0.9%	1	8	-1.6	-0.1
[32] Cc1c(/C=N/NC(=O)c2cc(C(C)(C)C)[nH]n2)c2ccccc2n1C
    -5	-0.6%	4	-18	-1.9	1.8
[33] CC(=O)c1ccc(NC(=S)N2CCN(CCO)CC2)cc1
    -1	-0.5%	-20	-19	-1.9	-0.2
[34] Cc1ccc(C)c(SCC(=O)Nc2cccc(S(=O)(=O)N3CCOCC3)c2)c1
    13	0.9%	5	-12	6.2	0.3
[35] CN(C)C(=O)CCc1ccc2c3c([nH]c2c1)[C@]1(CCc2ccccc2)[C@@H](C(=O)N2CCCCC2)C[C@H](CC(=O)NCCC2=CCCCC2)C(=O)N1CC3
    nt	0.6%	5	0	-2.6	-0.4
[36] O=C(c1cc(F)ccc1F)C1CCCN(Cc2cccn2-c2ccccn2)C1 (configuration not stated)
    -28	0.2%	-10	4	-5.1	-0.4
[37] COc1ccc(OC)c(NC(=O)C(C)n2nc(C)c3c(C)n(-c4ccccc4)nc3c2=O)c1 (configuration not stated)
    nt	1.3%	nt	1	nt	-1.1
[38] O=C(NC(Cc1c[nH]c2ccccc12)C(=O)NCc1ccc(F)cc1)OCc1ccccc1 (configuration not stated)
    1	-0.6%	-4	14	0.5	2.3
[39] Cc1ccccc1CS(=O)(=O)CC1(O)CCN(C(=O)c2cccc(C(F)(F)F)c2)CC1
    -6	3.0%[38.3 µM]	4	18	-0.4	-0.4
[40] COc1ccc(C(=O)NNC(=O)CCCCC(=O)NNC(=O)c2ccc(OC)cc2)cc1
    -9	1.4%	6	4	-4.3	0.1

Second line of a record – D2 potentiator	PINK1 expr mod	Six1-Eya2 inh	TRPML1 inh	D2 agonist	TRPML1 ag
[41] COCCn1c(SCC(=O)Nc2cc(C)nn2-c2ccccc2)nnc1-c1ccncc1
    -4	-1.9%	1	7	-0.8	-0.3
[42] Cc1[nH]ccc(=O)c1OCC(=O)O
    -21	-0.4%	6	-5	-4.0	0.0
[43] Cc1ccc2c(C)c(C(=O)N3CCN(Cc4ccccn4)CC3)oc2c1C
    -18	0.7%	-14	4	-2.1	0.6
[44] CCCN(C(=O)Cn1cnc2sc(C)c(S(=O)(=O)N3CCN(c4ncccn4)CC3)c2c1=O)c1cccc(C)c1
    nt	-0.3%	nt	-14	nt	-0.4
[45] COC(=O)Cn1nnc(-c2cccc(OC)c2)n1
    -15	1.1%[38.3 µM]	0	36	-4.7	-0.6
[46] CC(C)N(C(=S)Nc1cc(S(=O)(=O)N2CCOCC2)ccc1Cl)c1ccccc1
    4	1.1%	-5	7	-4.6	-0.3
[47] C=CCn1c(SCc2ccc(Cl)cc2)nc2cc(C(=O)N3CCC(C(N)=O)CC3)ccc2c1=O
    1	-2.4%	10	-2	-3.3	-0.2
[48] COc1ccc(C(=O)Nc2nnc(SCc3cc(=O)n4cc(Cl)ccc4n3)s2)cc1
    nt	?	nt	0	nt	0.2
[49] COc1ccc(CC(CN)c2ccccc2)cc1 (configuration not stated)
    -1	1.6%	2	-29	-5.1	-0.1
[50] CCCCCCn1c(=O)c(-c2ccccc2)c(O)c2ccccc21
    -17	3.7%	-20	17	-4.6	-0.3

Second line of a record – D2 potentiator	PINK1 expr mod	Six1-Eya2 inh	TRPML1 inh	D2 agonist	TRPML1 ag
[51] CC(CO)NS(=O)(=O)c1cc(Cl)ccc1F (configuration not stated)
    2	2.5%	5	-6	-7.3	-0.5
[52] Cc1ccc(S(=O)(=O)CCC(=O)OCC(=O)NC2CCS(=O)(=O)C2)cc1 (configuration not stated)
    2	-1.5%	4	25	-0.4	0.3
[53] CCN1CCC(C(N)=O)CC1
    4	-2.7%	-22	5	-2.7	-0.3
[54] O=C(NNC(=O)c1ccc(Br)s1)NC1CCCCC1
    -34	-1.3%	0	-3	-7.6	0.6
[55] COc1ccc2nc(C3CCCCC3)nc(C3CCCCC3)c2c1
    -5	?	4	-13	-0.3	0.6
[56] CCCc1cc(=O)oc2cc(OCC(=O)NCCc3c[nH]c4ccc(OC)cc34)ccc12
    9	1.0%	-3	nt	4.1	nt
[57] Cc1ccc(NC(=O)C2=CC=CN3CCS(=O)(=O)N=C23)cc1
    -2	0.3%	-2	-12	-2.4	0.2
[58] COC(=O)c1ccc2c(=O)n(CCCCCC(=O)N3CCN(c4cc(Cl)ccc4C)CC3)c(=O)[nH]c2c1
    nt	1.1%	nt	5	nt	-0.5
[59] COc1cccc(C2(c3cccc(OC)c3)CC2C(=O)Nc2cccc3ccccc23)c1 (configuration not stated)
    -9	15%	2	2	-3.4	1.0
[60] O=C(COC(=O)CNS(=O)(=O)c1ccc(F)c(F)c1F)Nc1ccc(OC(F)F)cc1
    1	3.4%	2	-26	-1.0	-0.8
[61] CCN1CCc2c(sc(NC(=O)Cc3ccccc3)c2C(N)=O)C1
    -15	-1.5%	2	27	-6.1	-0.3
[62] CCN(c1ccc(C(=O)CSc2nnc(C3CC3)n2C2CC2)cc1)S(C)(=O)=O
    -1	0.3%	10	10	-0.2	-0.4
[63] CCOc1ccc(/C=N/Nc2cc(C)nc(N3CCOCC3)n2)cc1
    13	6.1%	-3	20	-1.5	1.9
